Sa growth 42C: blocks Staphylococcus aureus growth. S. aureus RN4220 growth, OD600, 20 h, 42 °C; active compounds read low. relative growth, % (test concentration not listed). 170,000 tested, 0.53% active;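 active means growth at 42 °C up to 50% and 20 or more points under that at 30 °C, or under 10% at both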;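 further: 300 nL library stock went into each well; scaled to the means of positive and negative controls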
GIV-Gai inh: GIV-Galpha-i interaction inhibition; P08753; Galpha-i3/FITC-GIV peptide fluorescence polarization, 90 min; active compounds read low; scaled: aluminum fluoride 0%, vehicle 100%; percent of control (FP), % (no concentration beside the values); 210,000 tested, 0.42% active; AID 1224905;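 active means replicate mean at 85% of control or lower, very high polarization wells dropped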;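 further: wells of about 15 µL received 100 nL stock; the first replicate is given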
Target sequence (P08753 whole entry, looked up): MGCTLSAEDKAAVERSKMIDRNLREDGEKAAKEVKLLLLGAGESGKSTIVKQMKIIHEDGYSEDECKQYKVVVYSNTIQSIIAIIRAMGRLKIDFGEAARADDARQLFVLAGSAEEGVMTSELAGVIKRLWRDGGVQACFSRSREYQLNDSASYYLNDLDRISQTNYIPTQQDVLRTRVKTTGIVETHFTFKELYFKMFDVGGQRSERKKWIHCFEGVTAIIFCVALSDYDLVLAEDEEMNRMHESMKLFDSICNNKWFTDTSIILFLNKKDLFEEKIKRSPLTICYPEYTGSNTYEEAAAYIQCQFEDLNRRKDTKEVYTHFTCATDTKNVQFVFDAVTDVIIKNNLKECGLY
HCMV UL50-53 inh: disrupts HCMV UL50-UL53 complex binding | HTRF UL50-UL53 interaction, normalized percent inhibition | AID 1918969 | 190,000 tested, 0.15% active | inhibition, % (no concentration beside the values);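 active means both replicates at 50% or more, plus weaker picks with an unusually low signal ratio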;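 further: stock transfer was 100 nL into about 20 µL; 0% = negative control wells and 100% = wells with untagged competitor protein; inactives centre near -12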
Sa growth 42C second temp: recorded beside Sa growth 42C, whose call it bears; relative growth, %; measured here: growth at 30 °C;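 optical density after 20 h as mean of two plates; 100% = untreated growth and lower means inhibition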
Starred values were filed as active, the others as inactive; / = no result given; & = joins results of further samples.

SMILES	Sa growth 42C	Sa growth 42C second temp	GIV-Gai inh	HCMV UL50-53 inh
O=C(CCCN1C(=O)c2ccccc2C1=O)NCc1ccco1	106	94	98	-7
COc1cc2c(cc1NC(=O)COCC(=O)O)oc1ccccc12	95	81	98	-7
O=C(Cn1nnc(-c2ccc(C(F)(F)F)cc2)n1)NCCc1ccccc1	110	88	103	-19
CC(Sc1ccc2nnc(-c3cccnc3)n2n1)C(=O)O (stereo not given)	81	87	103	-25
COc1ccc(COCC(O)CNC2CCC(C)CC2)cc1 (stereo not given)	110	100	/	2
Cc1ccc(N(CC(=O)Nc2ccc(C)c(Cl)c2)S(=O)(=O)c2cccs2)cc1	105	93	105	0
CCOC(=O)c1ccc(NC(=O)c2nn(C)c(C(F)(F)F)c2Cl)cc1	/	/	106	13
N#CCSc1cccc2cccnc12	89	59	108	-80
O=C(CS(=O)(=O)c1ccccc1)Nc1oncc1-c1ccccc1	/	/	104	4
Nc1nonc1C(=O)N1CCCC1	60	98	100	6
COc1ccccc1NCc1ccccc1Oc1ccc(S(=O)(=O)N2CCCC2)cn1	77	97	/	-16
COc1ccc(NC(=O)CCCN2C(=O)C(c3ccccc3)Oc3cccnc32)c(OC)c1 (stereo not given)	105	85	99	/
Cc1ccc(NC(=O)c2c(C)nc3sc(C(=O)Nc4ccc(F)cc4)c(N)c3c2-c2ccc(C)o2)c(C)c1	114	83	113	-5
CC(C)CN1CCc2nc(Nc3ccc(F)cc3F)ncc2C1	97	90	106	/
O=S(=O)(Nc1ccc(-c2ccc(N3CCCC3)nn2)cc1)c1ccccc1Cl	106	97	102	/
CCCCOC(=O)c1ccc(NC(=O)c2cc(-c3cccs3)on2)cc1	102	100	100	-1
COc1ccc(N2CC(NC(=O)N3C(C)CCCC3C)CC2=O)cc1 (stereo not given)	96	87	102	-23
O=C(OCC1CC(c2ccccc2)=NO1)c1ccco1 (stereo not given)	120	88	105	-96
COc1cc(C)c(N)cc1OC	94	88	/	-21
O=C(c1cnc2sc3c(n2c1=O)CCC3)N1CCCCC1	/	/	103	-15
c1ccc(CCCc2nn3c(-c4cccs4)nnc3s2)cc1	97	40	102	/
CCN1CCN(C(=O)CCSc2ccc(C)cc2)CC1	97	102	104	7
Nc1nc(N)nc(CN2C(=O)NC(c3ccccc3)(c3ccccc3)C2=O)n1	108	92	/	-29
CCc1ccc(-n2c(=O)c3cccnc3n2CC(=O)NCc2ccc(C)cc2)cc1	107	91	110	/
O=C(Nc1nnc2n1CCS2)c1ccccc1C(F)(F)F	89	79	99	/
(continued)
SMILES	Sa growth 42C	Sa growth 42C second temp	GIV-Gai inh	HCMV UL50-53 inh
CC1(C)Cc2cccc(OCC(=O)NC3CC3)c2O1	95	108	/	-11
Cc1ccc(Cl)cc1NC(=O)C(C)n1nnc2sc3c(c2c1=O)CCCC3 (stereo not given)	105	91	96	-19
C(=N\NC1=NCCCCC1)/c1ccc2c(c1)OCO2	95	95	/	-75
C=Cc1ccc(Cn2ccn(-c3ccc(F)c(F)c3)c(=O)c2=O)cc1	101	97	100	5
Cc1ccc(S(=O)(=O)Nc2nc3c(s2)C(=O)CC(C)(C)C3)cc1	103	73	109	-18
O=C(Nc1nc2ccccc2s1)C1CCCO1 (stereo not given)	106	84	99	-14
CCOc1ccc(Br)cc1S(=O)(=O)Nc1cccc(-c2ccc(OC)nn2)c1	111	87	104	/
O=C(COc1ccc(Cl)cc1)Nc1nonc1NC(=O)COc1ccc(Cl)cc1	103	98	111	1
Cc1cccc(-c2nc3nc(C)cc(N4CCN(c5ccccc5)CC4)n3n2)c1	105	87	103	-36
O=C(COc1ccc(Br)cc1)NC1CC1	101	101	101	-14
O=C(CC(c1cccs1)N1Cc2ccccc2C1=O)Nc1ccccc1 (stereo not given)	132	94	101	/
COc1ccc(C2C(=O)c3ccccc3C2=O)c(OC)c1	125	87	101	/
CC1=NC(=O)C2C(=O)O/C(=C/c3ccc4c(c3)OCO4)C2=C1 (stereo not given)	101	90	96	-46
O=C(Cn1nc(C(F)(F)F)c2c1CCC2)NC1CCCC1	93	93	98	-24
C=C(C)CN1C(=O)C2(OCCO2)c2ccccc21	/	/	101	1
O=C(CN1CCCCC1)N(c1ccccn1)c1ccccn1	105	104	/	1
CC1SCC(NS(=O)(=O)c2cc(Cl)sc2Cl)CS1 (stereo not given)	91	96	109	0
CCOc1ccc(-c2nonc2NC(=O)c2oc3cc(C)ccc3c2C)cc1	82	80	103	-4
Cc1cc(C)c(S(=O)(=O)Nc2cccc(-c3cn4ccccc4n3)c2)c(C)c1	112	89	106	/
O=C(Nc1noc2ccccc12)c1ccccc1	71	52	101	/
Cc1cccc(C(=O)OCCSc2nc(C)c3cc(C)c(C)cc3n2)c1	97	83	97	/
Cc1nn(C)c(C)c1CNC(=O)c1cnn2c(C(F)(F)F)cc(-c3ccc(Br)cc3)nc12	/	/	101	-7
CN=CC1=C(O)c2ccccc2C1=O	93	87	96	/
Cn1c(=O)[nH]c(=O)c2c(C3C(=O)Nc4ccccc43)c(-c3ccc4ccccc4c3)[nH]c21 (stereo not given)	/	/	104	-19
C=CCOc1cccc(CNc2cccc(C(=O)O)c2)c1	98	90	99	-8

Single values from the results shown.
Cc1cccc(C(=O)OCCSc2nc(C)c3cc(C)c(C)cc3n2)c1 | GIV-Gai inh: 97
Cc1ccc(Cl)cc1NC(=O)C(C)n1nnc2sc3c(c2c1=O)CCCC3 (stereo not given) | Sa growth 42C second temp: 91
CN=CC1=C(O)c2ccccc2C1=O | Sa growth 42C: 93

(list continues)
SMILES	Sa growth 42C	Sa growth 42C second temp	GIV-Gai inh	HCMV UL50-53 inh
CCOc1ccccc1NC(=O)CSC1=Nc2ccccc2N=C(c2ccccn2)C1	/	/	104	-36
CCC(=O)NC(C)C(c1cccs1)N1CCN(c2ccccc2)CC1 (stereo not given)	88	89	98	/
CC(C)C(=O)Nc1ccc2oc(-c3cncc(Br)c3)nc2c1	93	93	/	-41
COc1cc(CNC(=O)c2ccc(N(C)C)cc2)cc(OC)c1OC	98	93	/	-31
CCOC(=O)c1c(C)n(O)c2ccc3nonc3c12	80	33	104	-20
COc1ccc(C(Nc2cccc(C)n2)c2cc(C)sc2NC(=O)c2ccccc2)cc1 (stereo not given)	/	/	108	-31
COc1ccc2[nH]c3c(=O)n(CCCN(C)C4CCCCC4)cnc3c2c1	100	95	111	-5
Cc1cc(C)cc(-n2c(SCC(=O)NCC3CCCO3)nc3c([nH]c4ccccc43)c2=O)c1 (stereo not given)	106	87	97	/
CNC(=O)c1c(C)nc(SCC(=O)N2CCCC2=O)c(C#N)c1-c1ccco1	96	92	/	-44
O=c1[nH]cnc2cc(-c3ccccc3)sc12	102	85	110&106	-46
Cc1ccc2[nH]cc(CCN3CC(C(=O)Nc4nnc(CC(C)(C)C)s4)CC3=O)c2c1 (stereo not given)	/	/	156	-12
O=C(Cc1ccc(Cl)cc1)N1CCN(c2ccccc2)CC1	99	92	108	-11
O=C(O)/C=C/c1cnn(Cc2ccccc2)c1	71	93	/	8
CCN(C(=O)c1ccc(Cl)cc1)c1ccccc1C	107	118	100	1
Nc1cc(C(F)(F)F)ccc1Oc1ccc(C2CCCCC2)cc1	85	100	/	-3
O=c1c2c(nc3nc[nH]n13)CCC2	99	91	100	-14
COc1ccc(N(/C=C2\Sc3ccccc3C2=O)C(=O)c2ccco2)cc1	/	/	184	-32
O=C(C1=C(O)C(=O)N(Cc2ccccc2)C1c1cccnc1)c1ccco1 (stereo not given)	108	91	/	-10
O=c1c(Cl)c(NCc2ccco2)cnn1Cc1ccccc1	92	82	101	-14
CSc1nc(C)cc(Nc2c(C)cc(C)cc2C)n1	95	89	103	-27
CCN1C(=O)c2ccccc2S(=O)(=O)c2ccc(C(=O)NCc3ccc(OC)cc3)cc21	105	83	100	-23
CC(C)c1ccc(N2C(=O)N3CCCN3C2c2ccccc2)cc1 (stereo not given)	/	/	97	4
Cc1ccc(N2C(/N=C3\N=c4[nH]c5ccccc5c4=N3)=NC23C(=O)Nc2ccccc23)cc1C (stereo not given)	95	81	98	-34
COc1ccc(CN(C(=O)Nc2ccccc2)c2ccccn2)cc1OC	115	86	105	-4
Fc1ccccc1Cc1cn2cc(-c3ccc(Cl)cc3)nc2s1	85	86	106	-27

A second format for 3 compounds above:
Results follow in this order: Sa growth 42C, Sa growth 42C second temp, GIV-Gai inh, HCMV UL50-53 inh
> COc1ccc(C(Nc2cccc(C)n2)c2cc(C)sc2NC(=O)c2ccccc2)cc1 (stereo not given)
 : /, /, 108, -31
> COc1ccc2[nH]c3c(=O)n(CCCN(C)C4CCCCC4)cnc3c2c1
 : 100, 95, 111, -5
> Cc1cc(C)cc(-n2c(SCC(=O)NCC3CCCO3)nc3c([nH]c4ccccc43)c2=O)c1 (stereo not given)
 : 106, 87, 97, /

Four entries from above, set out differently:
molecule | Sa growth 42C | Sa growth 42C second temp | GIV-Gai inh | HCMV UL50-53 inh
O=c1c(Cl)c(NCc2ccco2)cnn1Cc1ccccc1 | 92 | 82 | 101 | -14
Fc1ccccc1Cc1cn2cc(-c3ccc(Cl)cc3)nc2s1 | 85 | 86 | 106 | -27
O=c1c2c(nc3nc[nH]n13)CCC2 | 99 | 91 | 100 | -14
CCN(C(=O)c1ccc(Cl)cc1)c1ccccc1C | 107 | 118 | 100 | 1

Next compounds.
SMILES	Sa growth 42C	Sa growth 42C second temp	GIV-Gai inh	HCMV UL50-53 inh
COc1cc(/C=C/C(=O)O)cc(S(=O)(=O)Nc2ccc3[nH]c(=O)[nH]c3c2)c1OC	116	104	/	-24
O=C(NCCC1=CCCCC1)C1CCCCC1	97	94	105	-1
CCOC(=O)N1CCc2c(sc(NCc3cccc(F)c3)c2C(=O)Nc2ccc(OC)cc2OC)C1	92	80	105	/
CC(C)CN(CC(C)C)C(=O)Cn1c(=O)oc2ccccc21	81	86	100	-3
COc1ccc(CNC(=O)Cn2c(=O)n3nc(-c4cccc(F)c4)nc3c3ccccc32)cc1OC	106	94	97	/
c1ccc2[nH]c(SCCN3CCOCC3)nc2c1	88	97	101	/
CCn1nc(C)c(CCNC(=O)c2cc3c(=O)n(CCOC)ccc3nc2C)c1C	/	/	101	-22
O=C(CC1C(=O)Sc2[nH]c(=O)sc21)c1ccc(F)cc1 (stereo not given)	70	38	/	-85
c1ccc2[nH]c(CN3CCCCCC3)nc2c1	88	92	/	5
O=c1nc(-c2ccccc2)c2cc(Br)ccc2[nH]1	95	90	101	-4&-41
Cc1cc(N2C(=O)CCS2(=O)=O)cc(C)c1S(=O)(=O)NC1CCS(=O)(=O)C1 (stereo not given)	/	/	104	-11
CSc1ccc([C@H]2[C@H](C(=O)O)CC(=O)N2Cc2ccccc2)cc1	102	87	100	/
COC(=O)CN1C=C(C(=O)OC)C(c2ccc(Cl)cc2)C(C(=O)OC)=C1	82	91	106	/
COc1ccc(C(=O)COC(=O)c2ccc(N3C(=O)C4C5C=CC(C5)C4C3=O)cc2)cc1 (stereo not given)	/	/	104	-14
CC(=O)OCc1cc(=O)n2nc(C3CCCCC3)sc2n1	84	92	103	/
CCCCNC(=O)c1nnc(C(=O)Nc2cccc(Cl)c2)s1	/	/	105	-8
Cc1cc(C)c(C)c(OCC(=O)NCC2CCCO2)c1 (stereo not given)	119	84	/	-9
Cc1ccc(NC(=O)C2=CC(c3ccc4c(c3)OCO4)=NS(=O)(=O)N2C)cc1	138	98	108	-16
CC(=O)Nc1ccc(/C=N/N2C(=O)c3ccccc3C2=O)cc1	94	89	/	-10
CCOc1ccc(C(=O)Nc2cccc(NC(=O)c3ccccc3)c2)cc1Br	103	72	98	/
O=S(=O)(Nc1ccccc1)c1ccc2c(c1)OCCO2	83	97	/	-15
CCOC(=O)c1ccc(NC(=O)Cn2cnc3sc(C(=O)OCC)c(C)c3c2=O)cc1	103	90	98	/
Cc1cc(Cl)ccc1OC(C)C(=O)n1cnc2ccccc21 (stereo not given)	102	94	108	-1
CCOc1ccc(N2C(=O)c3cc4ccsc4n3CC2(C)C(=O)NC2CCCCC2)cc1 (stereo not given)	/	/	108	-24
Cc1nnc(SCC(=O)Nc2ccc(Cl)cc2Cl)n1C	109	83	/	-37

Brought forward from above: three entries; new compounds follow.
SMILES	Sa growth 42C	Sa growth 42C second temp	GIV-Gai inh	HCMV UL50-53 inh
Cc1cc(Cl)ccc1OC(C)C(=O)n1cnc2ccccc21 (stereo not given)	102	94	108	-1
CCOc1ccc(N2C(=O)c3cc4ccsc4n3CC2(C)C(=O)NC2CCCCC2)cc1 (stereo not given)	/	/	108	-24
Cc1nnc(SCC(=O)Nc2ccc(Cl)cc2Cl)n1C	109	83	/	-37
Cc1cccc(-n2c(=S)n(CN3CCCC3)c3ccccc32)c1	81	72	/	-29
CC(=O)Nc1ccc(S(=O)(=O)Nc2nc3ccccc3nc2Nc2ccc(C(=O)O)c(O)c2)cc1	99	85	/	-24
COc1cc2c(cc1/C=C/C(=O)O)OC(C)C2 (stereo not given)	113	95	/	-13
Cc1occc(=O)c1OCc1ccc(Cl)cc1	94	84	104	-44
CCOC(=O)c1cc(-c2ccc(Cl)s2)[nH]n1	117	106	110	-7
COc1ccc(-n2nc(C(=O)N3CCN(c4cccc(C(F)(F)F)c4)CC3)c3c4ccccc4n(C)c3c2=O)cc1Cl	95	97	103	9
CCCCn1c(Cc2ccccc2)nnc1SCC(=O)NC	94	94	102	-14
CCOc1ccc(NC(=O)NCCCn2c(-c3ccc(F)cc3)nc3cccnc32)cc1	/	/	108	-1
CC(NC(=O)c1ccccc1NC(=O)c1ccccc1)C(=O)NCc1ccco1 (stereo not given)	106	99	102	-27
Cc1cc(C)cc(NC(=O)Cn2cc(C(=O)c3cccs3)c3ccccc32)c1	98	88	99	-12
O=C(c1cc2n(n1)CCCN(Cc1ccccc1)C2=O)N1CCOCC1	/	/	109	6
